RecA splice inh = Mtb RecA intein splicing inhibition. P9WHJ3. cell-free RecA intein splicing, fluorescence. inhibition, %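 (about 9 µM by stock and volumes)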. actives 0.75% (n = 290,000). AID 2221; in the data active means inhibition above about 30%;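 further: 0% = vehicle wells and 100% = reference inhibitor control wells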
Target sequence (P9WHJ3 whole entry, looked up, canonical isoform): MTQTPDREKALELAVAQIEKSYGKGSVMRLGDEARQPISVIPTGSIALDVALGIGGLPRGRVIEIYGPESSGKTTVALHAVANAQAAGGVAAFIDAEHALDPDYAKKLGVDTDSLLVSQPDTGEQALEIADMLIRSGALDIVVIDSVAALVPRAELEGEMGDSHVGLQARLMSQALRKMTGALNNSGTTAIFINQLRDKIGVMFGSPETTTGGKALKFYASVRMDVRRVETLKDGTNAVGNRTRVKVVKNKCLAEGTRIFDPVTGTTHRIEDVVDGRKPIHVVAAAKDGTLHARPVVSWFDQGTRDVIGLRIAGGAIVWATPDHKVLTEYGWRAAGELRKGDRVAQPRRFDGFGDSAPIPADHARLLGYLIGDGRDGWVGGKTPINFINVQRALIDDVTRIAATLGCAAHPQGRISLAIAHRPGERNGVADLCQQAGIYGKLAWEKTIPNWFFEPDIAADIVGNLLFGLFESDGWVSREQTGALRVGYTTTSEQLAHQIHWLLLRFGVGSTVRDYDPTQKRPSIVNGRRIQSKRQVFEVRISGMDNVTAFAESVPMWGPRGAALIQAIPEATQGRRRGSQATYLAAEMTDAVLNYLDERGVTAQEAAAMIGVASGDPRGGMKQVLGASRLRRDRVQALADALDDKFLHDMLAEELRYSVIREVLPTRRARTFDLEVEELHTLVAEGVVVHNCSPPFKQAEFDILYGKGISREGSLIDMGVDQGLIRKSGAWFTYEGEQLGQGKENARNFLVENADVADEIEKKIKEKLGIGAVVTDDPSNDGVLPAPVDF
Mtb H37Rv = M. tuberculosis H37Rv growth inhibitors, H37Rv strain (AID 1626); M. tuberculosis H37Rv growth inhibition; higher % means a stronger effect; actives 0.95% (n = 220,000); one-dose inhibition, % at 10 µM; IC50 in µM for titrated hits;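 active means confirmed in a dose series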;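 further: bacteria incubated seven days before Alamar blue readout; 0% = bacteria only wells and 100% = bacteria with antibiotic wells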
YopH PTP inh = inhibitors of Yersinia enterocolitica YopH tyrosine phosphatase | fluorescence Ex485/Em525 | inhibition, %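 (about 10 µM by stock and volumes)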 | actives 0.16% (n = 140,000) | AID 898;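 active means inhibition of 50% or more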;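 further: controls were vehicle for no effect and minimum signal wells for full effect; inactives centre near -20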
Mtb betalactam = beta-lactam sensitization of Mtb H37Rv; inhibition, % at 25 µM; actives 0.27% (n = 330,000); M. tuberculosis H37Rv growth with meropenem, percent inhibition; hits of this screen are not shown here; AID 434955;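 active means about 74% or more and at least 40 points above the plate without the antibiotic, then above 30% in a dose series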;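 further: growth measured after seven days incubation then overnight dye step; 0% = bacteria only wells and 100% = bacteria with antibiotic; twin plates without the antibiotic show which effects depend on it; some results filed as inactive read as strong as hits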
Arbovirus inh = antivirals against arbovirus infection; arbovirus infection cell-based antiviral screen; inhibition, % at 10 µM; actives 0.37% (n = 200,000); AID 1251;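 active means inhibition from about 30%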;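 further: bluetongue infection of BSR cells; cell survival read as ATP light after 72 h; 0% = infected wells without compound and 100% = uninfected wells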
Arbovirus inh repeat = also measured in Arbovirus inh; calls as there; inhibition, %; measured here: 10K subset replicate screen; many hits read low in the repeat;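 first of two repeat runs on a subset; 0% = infected and 100% = uninfected wells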
* = called active by the depositor; . = no result given. The list is partial; rates above refer to the full screens.

SMILES	RecA splice inh	Mtb H37Rv	YopH PTP inh	Mtb betalactam	Arbovirus inh	others
C#CCn1c(=NC(=O)c2ccc(Br)s2)sc2cc(NC(C)=O)ccc21	-2.2	1%	-10	-1	-1
COc1cccc(/C=N/NC(=O)c2[nH]c(C)c(C(=O)N/N=C/c3cccc(OC)c3O)c2C)c1O	-4.6	-3%	-23	1	-17
Cc1cc(C)n2nc(CC(=O)NC3CCCCCCC3)nc2n1	1.2	-9%	-34	-17	2
COC(=O)[C@]1(CC(C)C)N[C@H](c2ccc(-c3ccc(F)cc3)c(OC)c2)[C@@H]2C(=O)N(C)C(=O)[C@@H]21	6.9	.	.	-1	.
CCCCn1c(CN2CCN(c3cccc(Cl)c3)CC2)nc2c1c(=O)n(C)c(=O)n2C	4.8	-7%	-1	30	-11
O=C(NCCS(=O)(=O)N1CCN(c2ccccc2)CC1)C1CC(=O)N(c2ccc(F)cc2)C1 (stereo not drawn)	-2.4	.	.	3	.
O=C(Nc1ccc(F)cc1)c1ccc2snnc2c1	-0.1	.	.	-2	.
O=c1cc(N2CCOCC2)[nH]c(=O)n1-c1ccc(Cl)cc1	1.4	4%	.	1	1	Arbovirus inh repeat=5
O=C(CNC(=O)c1ccccc1Cl)OC1CCOC1=O (stereo not drawn)	-1.0	3%	.	-6	2
CC(=O)Nc1ccc(NC(=O)CS(=O)(=O)c2cn(CC(=O)N3CCCCC3)c3ccccc23)cc1	1.7	.	.	-5	.
COc1ccc(C(C)(C)C)cc1NC(=O)c1[nH]c(C)c(C(C)=O)c1C	-0.9	.	.	0	.
CCn1c2ccccc2c2cnc(N=CN(C)C)c(C#N)c21	2.6	5%	-176	19	-11
COc1ccc(NC(=O)N2CCOCC2)cc1OC	3.4	-6%	-11	-5	5
C=Cc1ccc2c(c1)OCCOCCOCCOCCOCCO2	-0.5	.	.	-6	.
CCOc1cc(C(=O)NC(C)CCc2ccccc2)cc(OCC)c1OCC (stereo not drawn)	-1.3	.	.	-2	.
O=C(O)C1(c2ccccc2)CCC(Nc2ccccc2)C1 (stereo not drawn)	-0.7	.	.	-3	.
Nc1cccc(S(=O)(=O)Nc2ccccc2)c1	-2.1	2%	.	0	3
CCNC(=O)N1CCNC(=O)C1CC(=O)OC (stereo not drawn)	-0.1	-3%	-38	-3	-4
COc1ccc(-c2nc(NC(=O)Cn3c(=O)oc4ccccc43)sc2C)cc1	4.3	-2%	-41	1	3
Cc1ccc(C)c(NC(=S)/C(=C(\[O-])c2ccc(OC(F)F)cc2)[n+]2ccccc2)c1	33*	2%	.	0	6
Cc1ccc(C)c(OCc2nc(-c3cccnc3)no2)c1	.	5%	-1	3	-4
O=C(CNS(=O)(=O)c1ccccc1)NNC(=O)C(Cl)Cl	0.4	1%	.	-2	5
O=C(COC(=O)C1CCC1)c1c[nH]c2ccccc12	0.2	.	.	-5	.
CCN(CC)c1ncnc2c1cnn2Cc1ccc(Cl)cc1	1.7	5%	.	7	-2
COC(=O)c1c(NC(=O)Cc2ccccc2)sc(C)c1C	-0.2	0%	-38	7	-6
CCCCCCP(=O)(O)c1ccccc1	-1.2	-2%	10	3	5
CCN(CC)S(=O)(=O)c1cccc(NC(=O)COC(=O)CCc2nc3ccccc3s2)c1	2.4	-1%	-134	-2	6
COc1ccc(C(=O)c2ccccc2)c(OCC(=O)N(C)C)c1	5.5	4%	.	2	-5
Cc1ccccc1OCCC(=O)OCC(=O)NC(=O)c1ccccc1	-1.1	.	.	-8	.
NC(=O)C1CCN(C(=O)C(=O)c2cn(CC(=O)N3CCCCCC3)c3ccccc23)CC1	-1.1	.	.	-16	.

Entries above that have a thiophene ring, fused or not, in the order listed:
SMILES	RecA splice inh	Mtb H37Rv	YopH PTP inh	Mtb betalactam	Arbovirus inh	others
C#CCn1c(=NC(=O)c2ccc(Br)s2)sc2cc(NC(C)=O)ccc21	-2.2	1%	-10	-1	-1
COC(=O)c1c(NC(=O)Cc2ccccc2)sc(C)c1C	-0.2	0%	-38	7	-6

Continuation:
SMILES	RecA splice inh	Mtb H37Rv	YopH PTP inh	Mtb betalactam	Arbovirus inh	others
CC(C)OC(=O)c1cccnc1SCc1cc(=O)n2ccccc2n1	4.3	-6%	-45	-11	-5
Cc1cc(C)c(C(=O)COc2cccnc2[N+](=O)[O-])cc1C	.	-12%	-15	3	-39
c1ccc(CN2CCOCCOCCOCCOCCOCCOCC2)cc1	.	-4%	.	0	1
O=C(c1cccc([N+](=O)[O-])c1)N1CCN(C(=O)c2ccco2)CC1	4.7	-3%	.	-1	2
Cc1cc(Cl)ccc1OCCCC(=O)NCCN1C(=O)S/C(=C\c2cccnc2)C1=O	15	-8%	-18	12	2
CCOC(=O)N1CCN(CCc2ccccc2)CC1	-1.4	.	.	-2	.
Cc1ccccc1C(=O)N1CCN(C(c2ccccc2)c2ccccc2)CC1	23	5%	.	0	.
Cc1ccc(NC(=O)c2ccco2)c(NC(=O)C2CCCO2)c1 (stereo not drawn)	0.4	-2%	.	-6	1
CC1=C(C(=O)OC(C)C)C(c2ccccc2Cl)CC(=O)N1 (stereo not drawn)	-0.1	.	14	-5	-5
Cc1noc(C)c1CSc1nnc(-c2cccnc2)n1C1CCCCC1C (stereo not drawn)	0.5	-5%	-25	12	-2
Cc1cc(NC(=O)C2CCN(S(=O)(=O)c3cnc[nH]3)CC2)ccc1Br	2.1	4%	-24	2	-4
COc1ccc(OC)c(S(=O)(=O)N2Cc3ccccc3CC2C(=O)O)c1 (stereo not drawn)	-0.7	-12%	-34	-2	-2
O=C(CC(C(=O)O)c1ccc(Cl)cc1Cl)c1ccc(Cl)cc1 (stereo not drawn)	-2.3	.	.	9	.
COc1cc(/C=C2\C(=N)N3N=C(S(C)(=O)=O)SC3=NC2=O)ccc1OC(=O)c1ccco1	27	.	.	11	.
COc1cc(/C=C/C(=O)OCC(=O)Nc2sc3c(c2C#N)CCC(C)C3)ccc1OCC#N (stereo not drawn)	0.2	12%	.	-5	-8
O=C(NCCC1=CCCCC1)C1CCN(S(=O)(=O)c2ccccc2C(F)(F)F)CC1	-3.9	.	.	-15	.
CCc1cc(C(=O)N2CCCC(C(=O)c3ccc(OC)c(F)c3)C2)n(C)n1 (stereo not drawn)	0.3	.	.	7	.
Cc1cccc(NC(=O)c2ccccc2-c2ccccc2)c1	1.5	9%	.	6	4
Cc1oc(-c2ccccc2Cl)nc1CS(=O)(=O)CC(=O)NC1CCCC1	0.5	.	.	-1	.
Cc1nn(Cc2cccc(C(=O)NC3CCCCC3)c2)c(C)c1Cl	2.4	.	-115	-4	-6
COc1ccccc1/C=N/OCc1cc(C(C)=O)ccc1OC	7.4	.	.	0	.
CC1CCN(S(=O)(=O)c2ccc3c(c2)c(=O)c(C(=O)NCc2cccs2)cn3C)CC1	0.6	-3%	-39	-5	1
Cc1nnsc1C(=O)NNC(=O)Nc1ccccc1	2.9	7%	.	-2	-3
Cc1cc(C)c(C)c(S(=O)(=O)N[C@@H](C)C(=O)OCc2cc(=O)n3cc(Br)ccc3n2)c1C	-1.6	-5%	.	-1	-1
COc1cccc(CNC(=O)CSCc2cnn(-c3ccccc3)c2-n2cccc2)c1OC	5.4	-3%	-26	1	1
O=C(CS(=O)(=O)Cc1ccccc1)Nc1nc2c(s1)CCCC2	2.7	9%	7	-12	0
CN1C2c3ccccc3C3C4c5ccccc5C(C31)C(C2[N+](=O)[O-])N4C (stereo not drawn)	3.0	0%	.	0	.
COc1ccc(C2/C(=C(/O)c3ccc4c(c3)CC(C)O4)C(=O)C(=O)N2CCCN2CCOCC2)cc1 (stereo not drawn)	3.6	.	.	-2	.
N#Cc1ccc(OCC(=O)Nc2cccc(S(=O)(=O)NC3=NCCCCC3)c2)cc1	-7.1	.	.	-8	.
Cc1ccc(-c2nc3ccccc3n2C)o1	0.0	-16%	-12	5	-13

20 structures from above, sorted by SMILES length, lowest first:
SMILES	RecA splice inh	Mtb H37Rv	YopH PTP inh	Mtb betalactam	Arbovirus inh	others
Cc1ccc(-c2nc3ccccc3n2C)o1	0.0	-16%	-12	5	-13
CCOC(=O)N1CCN(CCc2ccccc2)CC1	-1.4	.	.	-2	.
Cc1nnsc1C(=O)NNC(=O)Nc1ccccc1	2.9	7%	.	-2	-3
Cc1cccc(NC(=O)c2ccccc2-c2ccccc2)c1	1.5	9%	.	6	4
COc1ccccc1/C=N/OCc1cc(C(C)=O)ccc1OC	7.4	.	.	0	.
Cc1ccc(NC(=O)c2ccco2)c(NC(=O)C2CCCO2)c1 (stereo not drawn)	0.4	-2%	.	-6	1
Cc1nn(Cc2cccc(C(=O)NC3CCCCC3)c2)c(C)c1Cl	2.4	.	-115	-4	-6
O=C(CC(C(=O)O)c1ccc(Cl)cc1Cl)c1ccc(Cl)cc1 (stereo not drawn)	-2.3	.	.	9	.
Cc1ccccc1C(=O)N1CCN(C(c2ccccc2)c2ccccc2)CC1	23	5%	.	0	.
COc1ccc(OC)c(S(=O)(=O)N2Cc3ccccc3CC2C(=O)O)c1 (stereo not drawn)	-0.7	-12%	-34	-2	-2
Cc1cc(NC(=O)C2CCN(S(=O)(=O)c3cnc[nH]3)CC2)ccc1Br	2.1	4%	-24	2	-4
O=C(c1cccc([N+](=O)[O-])c1)N1CCN(C(=O)c2ccco2)CC1	4.7	-3%	.	-1	2
COc1cccc(CNC(=O)CSCc2cnn(-c3ccccc3)c2-n2cccc2)c1OC	5.4	-3%	-26	1	1
N#Cc1ccc(OCC(=O)Nc2cccc(S(=O)(=O)NC3=NCCCCC3)c2)cc1	-7.1	.	.	-8	.
Cc1cc(Cl)ccc1OCCCC(=O)NCCN1C(=O)S/C(=C\c2cccnc2)C1=O	15	-8%	-18	12	2
COc1cc(/C=C/C(=O)OCC(=O)Nc2sc3c(c2C#N)CCC(C)C3)ccc1OCC#N (stereo not drawn)	0.2	12%	.	-5	-8
CC1CCN(S(=O)(=O)c2ccc3c(c2)c(=O)c(C(=O)NCc2cccs2)cn3C)CC1	0.6	-3%	-39	-5	1
COc1cc(/C=C2\C(=N)N3N=C(S(C)(=O)=O)SC3=NC2=O)ccc1OC(=O)c1ccco1	27	.	.	11	.
COc1ccc(C2/C(=C(/O)c3ccc4c(c3)CC(C)O4)C(=O)C(=O)N2CCCN2CCOCC2)cc1 (stereo not drawn)	3.6	.	.	-2	.
Cc1cc(C)c(C)c(S(=O)(=O)N[C@@H](C)C(=O)OCc2cc(=O)n3cc(Br)ccc3n2)c1C	-1.6	-5%	.	-1	-1

Continued:
SMILES	RecA splice inh	Mtb H37Rv	YopH PTP inh	Mtb betalactam	Arbovirus inh	others
CC(=O)n1cc([C@@H]2C=C(C(=O)N3CCN(Cc4ccc5c(c4)OCO5)CC3)O[C@H](OCc3ccc(CO)cc3)C2)c2ccccc21	5.4	3%	.	25	-8
CN(C)C(=O)O/N=C(\N)COc1ccc(C(C)(C)C)cc1	1.7	-11%	.	-4	.
NC(=O)c1nsnc1-c1ccccc1O	3.9	-14%	-23	-9	0
C=CC(C)(C)c1c(O)c(CC=C(C)C)c(O)c2c(=O)c3ccc(O)c(O)c3oc12	-0.1	-3%	.	-4	.
CN(C)CC1CCCCC1OC(=O)Cc1ccc(Cl)c([N+](=O)[O-])c1 (stereo not drawn)	2.1	.	.	2	.
Cc1ccc(/C=N/NC(=O)COc2ccc(Cl)c(C)c2)o1	2.5	.	.	0	.
O=C(c1cccc(F)c1)N1CCN(C(=O)C(c2ccccc2)c2ccccc2)CC1	1.8	.	.	-7	.
CC(C)NC(=O)COc1coc(CN2CCN(C(=O)c3ccco3)CC2)cc1=O	-1.7	.	.	-10	.
Cc1cccc(-c2cccc(NC(=O)C3CCCN(C(=O)c4cccnc4)C3)c2)c1 (stereo not drawn)	1.3	.	.	6	.
O=C(Nc1ccc(Cl)cc1)NC1CCCCC1	1.9	-4%	-35	-9	1
CCOC(=O)c1c(C)n(C)c2ccc(OCCN(C)C)cc12	-6.7	.	-3	7	6
CC1CCC(NC(=O)C2c3ccccc3C(=O)N2Cc2cccs2)CC1 (stereo not drawn)	-0.6	2%	-18	1	3

Bioassay records as filed in PubChem.
